NPYLR7 ag = activates Aedes aegypti NPYLR7 receptor; HEK293T NPYLR7/Galpha15, GCaMP6s calcium fluorescence; activation, % at 10 µM; 270,000 compounds, 0.15% hits; AID 1259423; in the data active = activation above about 40%;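 note: 0% = vehicle and 100% = reference agonist at the receptor; some compounds past the cut are filed as inactive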
NPYLR7 ag max-min = further read-out of NPYLR7 ag, marked with its call; activation, %; measured here: Max-Min RFU normalised activation; some inactives read as strong as hits;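 span of the calcium signal over five minutes; 0% = vehicle and 100% = native peptide agonist; compound fluorescence can raise it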
An asterisk follows results filed as active; & = joins results of further samples. Not all compounds are listed; rates above refer to the full screens.

molecule | NPYLR7 ag | NPYLR7 ag max-min
CCCc1cc(C(=O)N2CCN3C(=O)CN(C)C(=O)C3C2)n(C)n1 (stereo not given) | 0.8 | -0.3
Cc1c(CN2CCc3c([nH]c4ccccc34)C2C(C)C)c(=O)n(-c2ccccc2)n1C (stereo not given) | 0.6 | -5.2
O=C(CCCn1nc(-c2ccc(F)cc2)ccc1=O)N1CCc2ccccc21 | 8.6 | 9.0
O=C(CCCn1ncn2c(cc3occc32)c1=O)NCc1cccs1 | 3.0 | -0.9
COc1ccc(NC(=O)CN2CN(c3ccccc3)C3(CCN(C(=O)c4ccc(OC)cc4OC)CC3)C2=O)cc1 | 22.7 | 18.9
Cn1ncc2c(N3CCOCC3)nc(N3CCCCCC3)nc21 | 5.0 | 1.7
COCCCN(Cc1ccc(F)cc1)Cc1ccc(C(O)(CC2CCC2)CC2CCC2)o1 | 12.3 | 12.1
CCc1c(C(=O)NC(C)Cc2cc(C)[nH]n2)csc1C (stereo not given) | -0.1 | -3.8
CC(C)N(Cc1nnc(-c2ccccc2)o1)S(=O)(=O)c1ccccc1Br | 18.4 | 11.1
COC(=O)c1c(O)nc2cc(C)ccn2c1=O | -0.3 | -2.4
COc1ccc(-n2ccnc2-c2nccn2CCn2cccn2)cc1 | 25.3 | 18.7
Cc1ccsc1CN(Cc1ccc(F)cc1)Cc1nc(C(=O)NCC2CCCO2)co1 (stereo not given) | 20.9 | 16.8
O=C(c1ccc(CSc2nnc(-c3ccncc3)n2-c2ccccc2F)cc1)N1CCN(c2ccccc2F)CC1 | -8.3 | 2.6
O=C(CCC1CCCCC1)NCc1ccc2c(c1)OCCO2 | 8.1 | 4.7
Cn1c(CC2CCNCC2)nnc1SCc1ncccn1 | -3.3 | -6.9
O=C(Nc1cccc(Cl)c1Cl)N1CCSC1c1ccc(F)cc1 (stereo not given) | 19.4 | 21.9
C=c1onc(-c2ccccc2)c1=c1[nH]/c(=C\c2coc3ccc(Cl)cc3c2=O)c(=O)o1 | 0.1 | -3.6
CCC(C)N(CC(=O)N(Cc1ccccc1)Cc1cccn1Cc1cccc(OC)c1)C(=O)C1C[C@H]1c1ccccc1 (stereo not given in full) | -9.6 | -14.4
Cc1nc(C)c(CNC(C)(CNC(=O)OC(C)(C)C)C2CC2)s1 (stereo not given) | -0.6 | -1.3
O=C(CCN1CCCCO1)N1CCOC(CCCc2ccccc2)C1 (stereo not given) | 19.5 | 7.3
COCCN1C(=O)[C@]2(C)[C@H](c3ccccc31)[C@@H](C(N)=O)CN2C(=O)COc1ccccc1 | 13.7 | 11.5
Oc1ccc(Br)cc1/C=N\Nc1nc(N2CCCCC2)nc(N2CCCCC2)n1 | 3.5 | -1.4
COC(OC)C1(C)Nc2ccccc2C(=O)N1c1ccccc1Cl (stereo not given) | 2.2 | 7.0
COc1cc(OC)cc(C(=O)NC2CCN(c3ccccc3C(=O)N3CCN(c4ccccn4)CC3)CC2)c1 | 1.8 | 10.8
CC(C)n1ccc(=O)nc1SCC1CCCCO1 (stereo not given) | -0.8 | -1.0
O=C(NC1C2CC3CC(C2)CC1C3)c1cccnc1Oc1ccc(Cl)cc1 (stereo not given) | 3.2 | 7.3
Cc1cc2c(n1-c1cccc(C(F)(F)F)c1)CCCC2NC(=O)CN1CSCC1=O (stereo not given) | 9.4 | 5.5
O=C(c1ccc2c(c1)CCO2)N1CCN(Cc2ccc(-c3noc(-c4ccco4)n3)cc2)CC1 | 7.9 | 18.0
COc1ccc(Cl)c2sc(N3CCN(C(=O)CS(=O)(=O)c4ccc(C)cc4)CC3)nc12 | 9.2 | 5.8
CN(C)C(CNC(=O)Nc1ccc(-n2cncn2)cc1)c1ccc(F)cc1 (stereo not given) | 4.8 | 1.9
CC(C)(C)NC(=O)/C=C/c1ccc(S(=O)(=O)Nc2ccccc2Cl)cc1 | 9.9 | 8.5
NC(=O)CSc1nc(-c2ccc(F)cc2)nc2c1Cc1ccccc1O2 | 10.0 | 12.5
CCN(C(=O)CN1CC(C)C(N2CCN(C(C)=O)CC2)C1)C1CC1 (stereo not given) | 1.7 | 3.2
COCCCNC(=O)C(C1CCCC1)N1CCN(C(=O)c2cccc(OC)c2)CC1 (stereo not given) | -7.5 | 4.4
CN(Cc1ccc(Cl)c(Cl)c1)C(=O)NCc1ccnc(N2CCCC2)c1 | 6.9 | 4.0
O=C(CCc1ccccc1)N1CCN(C(C(=O)N2CCCC2)C2CCCC2)CC1 (stereo not given) | -10.1 | -7.3
C=CCOC(=O)C1=C(C)NC(=O)NC1c1cccc(Br)c1 (stereo not given) | -3.4 | -9.1
NC1=NC(=O)C(=Cc2ccc(F)cc2)S1 | -5.0 | -8.6
O=C1C2CC=CCC2C(=O)N1c1ccc(F)c(Cl)c1 (stereo not given) | -11.3 | -14.1
COC(=O)c1cc2n(n1)CCCN(CC(C)c1ccccc1)C2 (stereo not given) | 17.5 | 4.0
Cc1cccc2c1NC1(CCN(C(=O)Nc3ccc(C(C)C)cc3)CC1)NC2=O | -3.8 | 3.0
Cc1ccc(C(=O)N2CCN(c3nc(C)cc(Nc4ccccc4)n3)CC2)cc1 | 12.1 | 7.3
CCOc1ccc(NC(=O)c2cn(C)c3c(=O)n(-c4ccccc4)c(=O)[nH]c23)cc1 | 3.0 | 0.3
Cc1ccc([N+](=O)[O-])cc1S(=O)(=O)Nc1ccccn1 | 15.4 | 7.1
Cc1cccc(N2CCN(S(=O)(=O)CCCNC(=O)c3cccs3)CC2)c1 | -0.5 | -1.8
CN1CCN(C)C2(CCN(C(=O)C3(c4ccc(Cl)cc4)CCC3)CC2)C1 | -1.3 | 0.3
OC(COc1ccccc1)CN(Cc1ccccc1)Cc1c(-c2ccccc2)noc1N1CCOCC1 (stereo not given) | 12.6 | 15.0
CC1(C(=O)NCc2ccccc2Br)CCN1Cc1c(F)cccc1F (stereo not given) | 8.5 | 0.8
CCOCCOC(=O)Cn1cnc2c1c(=O)n(C)c(=O)n2C | 8.6 | 15.3
Nc1nnc(-c2cc3cc(Cl)cc(Cl)c3oc2=O)s1 | -6.7 | -9.3
CCc1cc(-c2c(F)cccc2OC)ccc1NC(C)=O | 0.1 | 3.6
O=C(Nc1cccc2ccccc12)N1CCc2nc(Cc3ccc(F)cc3)[nH]c(=O)c2C1 | 5.2 | 9.3
CCOC(=O)[C@H]1C[C@@H]2O[C@H]1[C@H]1CN(C(=O)CC(C)(C)C)C[C@H]1[C@@H]2O | -2.2 | -2.1
O=C(O)C1(C/C=C/c2ccccc2)CCCN(c2ncccn2)C1 (stereo not given) | 1.2 | 1.5
Cc1ccc(NCc2ccc(C(=O)NCCc3cnc[nH]3)cc2)cc1 | 4.8 | -1.4
O=C(c1ccco1)N1CCC(c2nc(-c3c(Cl)cccc3Cl)no2)CC1 | -7.9 | -11.4
O=C(CN1C(=O)CSc2ccccc21)NC1COc2ccccc2C1 (stereo not given) | 7.7 | 3.2
CCOC(=O)C1=C(C)N=c2s/c(=C/c3ccc(Cl)cc3Cl)c(=O)n2C1c1cccs1 (stereo not given) | 0.8 | -3.2
Cc1cccc([N+](=O)[O-])c1N=Nc1c(C)[nH]n(-c2nc(-c3ccc(Br)cc3)cs2)c1=O | 11.7 | 20.3
COc1ccccc1CN(C(=O)c1cccc2cccnc12)C1CC1 | -2.4 | -5.3

(cont.)
molecule | NPYLR7 ag | NPYLR7 ag max-min
Cc1[nH]c2ccc(Cl)cc2c1CCNc1ncnc2c1CCNC2 | 5.5 | -7.1
O=C(CN1CCOCC1)Nc1ccc(S(=O)(=O)N2CCCC2)cc1 | 1.4 | 22.2
O=C(Nc1ccccc1O)c1ccc(N2C(=O)C3C4C=CC(C4)C3C2=O)cc1 (stereo not given) | -3.3 | -11.4
CCCC(=O)OCc1[nH]c(C(=O)OCC)c(C)c1C(=O)OCC | 15.7 | 13.0
CC(C)(C)c1ccc(S(=O)(=O)N2CCN(C(=O)CCN3CCc4sccc4C3c3ccccc3)CC2)cc1 (stereo not given) | 19.8 | 23.9
Cc1nc(N2CCN(c3ccccn3)CC2)nc2c1C(=O)CC(c1ccco1)C2 (stereo not given) | -5.8 | -6.3
CCC(C)Nc1nc(C)nc2c1sc1nc3c(cc12)COC(C)(C)C3 (stereo not given) | 14.0 | 4.0
CN/C(=C/[N+](=O)[O-])NCCSCc1csc(CN(C)C)n1 | 0.2 | -4.5
Cc1noc2nc3c(c(C(=O)N4C[C@@H](N)C[C@H]4C(=O)NC(C)C)c12)CCC3 | 3.0 | 1.0
Cc1cccc(Nc2nc(N3CCOCC3)nc3c2cnn3-c2ccccc2)c1 | 0.8 | 0.7
Cc1nn(C)c(C)c1C(C)C(=O)O (stereo not given) | 7.6 | 3.7
CC1(C(=O)Nc2ccccc2)CCN1C(=O)CCC1CCCC1 (stereo not given) | 3.6 | -0.1
CC(C)NC(=O)[C@@H]1C[C@H](N)CN1C(=O)c1ccc(CN2CCCCCC2)cc1 | 2.4 | -1.3
Cc1cc(F)c2c(c1)CCCN2C(=O)C1CC(=O)N(C(C)C)C1 (stereo not given) | 0.4 | 9.1
Cc1ccc(NC(=O)C2CC(=O)N(c3ccccc3)C2)c(C)c1 (stereo not given) | -8.2 | -14.4
N#Cc1c(SCC(N)=O)nc(-c2ccccc2)c2c1CCCC2 | 8.8 | -1.5
Nc1ccccc1NC(=O)c1ccc(CNC(=O)OCc2cccnc2)cc1 | -3.9 | -9.4
CCC(C)N(C(=O)CSc1nc(N)cc(=O)[nH]1)C1CCS(=O)(=O)C1 (stereo not given) | -1.5 | 3.0
CCCCN(Cc1ccco1)C(=O)c1c(C)nn(CC)c1C | -4.5 | -11.8
O=C(CNC1CCCCCC1)NCCc1ccc(F)cc1 | -9.3 | -16.6

Continued, overlapping the part above by 4 compounds.
molecule | NPYLR7 ag | NPYLR7 ag max-min
Nc1ccccc1NC(=O)c1ccc(CNC(=O)OCc2cccnc2)cc1 | -3.9 | -9.4
CCC(C)N(C(=O)CSc1nc(N)cc(=O)[nH]1)C1CCS(=O)(=O)C1 (stereo not given) | -1.5 | 3.0
CCCCN(Cc1ccco1)C(=O)c1c(C)nn(CC)c1C | -4.5 | -11.8
O=C(CNC1CCCCCC1)NCCc1ccc(F)cc1 | -9.3 | -16.6
Cc1nc2ccccc2nc1CSC(C)C(=O)NC(C)(C)C (stereo not given) | -20.6&5.5 | -21.7&4.6
CC(=O)Nc1ccc(N=Nc2c(C)[nH]n(-c3nc(-c4ccc(Cl)cc4)cs3)c2=O)cc1 | -8.8 | -14.2
O=C(Cc1ccccc1[N+](=O)[O-])NC1CCCCCC1 | 13.0 | 14.8
Cc1cccc(NC(=O)N(Cc2c(C)nn(-c3cccc(F)c3)c2N2CCN(C(C)C)CC2)C(C)C)c1 | -0.1 | 1.0
CCCN(C(=O)CSc1ncn[nH]1)C1CCS(=O)(=O)C1 (stereo not given) | -2.0 | -3.2
Cn1cnc(-c2ccc(F)cc2)c1N | 4.8 | 2.6
O=c1ccn(Cc2ccc(F)c3cccnc23)c2ccccc12 | 0.2 | -4.6
COCCN1C(=O)NC(Cc2ccc(F)cc2)(C2CCN(C(=O)c3ccc(F)cc3)CC2)C1=O (stereo not given) | 24.9 | 21.9
CCCn1ncc(C(=O)N2CCC(C(=O)NCC)C2)c1C (stereo not given) | 6.7 | 0.9
CCCc1nc(CN(CC)C(=O)C2CCc3ccccc3C2)no1 (stereo not given) | 0.6 | -3.2
CCCN(C(=O)CCn1c(C)csc1=O)C1CCc2ccccc21 (stereo not given) | -1.7 | 3.1
Cc1ccc(-c2nnc(SCc3cn4cccc(C)c4n3)o2)cc1C | -0.5 | 38.2
CN(Cc1cc(-c2ccccc2)no1)Cc1cccc(F)c1F | 8.0 | 7.5
COc1ccccc1C1CN(C(=O)C(C)C)CC1C(=O)N1CCOCC1 (stereo not given) | 5.9 | 5.3
CCc1nc2n(n1)CC(NCc1cn[nH]c1-c1ccc(C)o1)CC2 (stereo not given) | 8.1 | 5.2
COc1ccc(CCN(C)c2cc(C)nc(SCc3cccc(C(=O)NCC4CC4)c3)n2)cc1OC | 0.0 | 4.2
Cc1ccc(C(C)C)cc1S(=O)(=O)NCc1ccco1 | 2.3 | 2.7
COCC1(C(=O)NC(c2ccncc2)c2ccc(C)cc2)CCC1 (stereo not given) | 0.0 | -2.5
C=CCNC(=O)NC1CCN(c2ccccc2C(=O)NCCc2ccccc2)CC1 | 21.6 | 12.6
CCS(=O)(=O)N1CCN(c2ccc(-n3cccn3)nn2)CC1 | -1.5 | -5.0
CCN(CC)C(=O)c1c(-c2ccccc2)noc1C | -0.9 | -4.8
O=C(COc1ccc(Cl)cc1)N(Cc1ccccn1)C1CCSC1 (stereo not given) | -1.2 | 1.2
O=C1NC2(CCN(S(=O)(=O)c3cccc(C(F)(F)F)c3)CC2)Nc2cccc(Cl)c21 | 0.8 | 3.7
CCCc1[nH]n(-c2cccc(Cl)c2)c(=O)c1C1=C([n+]2cccc(CC)c2)C(=O)N(CCC)C1=O | 11.9 | 12.7
CC1(C(=O)NCc2ccccc2Br)CCN1Cc1csc2ccccc12 (stereo not given) | 9.6 | 3.3
COc1ccc(CCOc2nc(-c3ccc(C(F)(F)F)cc3)n(-c3ccc(N)cc3)n2)cc1 | -2.2 | -11.0
COc1nc(-c2ccc(C(F)(F)F)cc2)n(-c2ccc(NC(=O)c3ccco3)cc2)n1 | 2.7 | 4.5
O=C(CSc1nc2c(c(=O)n1-c1ccccc1)SCC2)N1CCOCC1 | -3.6 | -6.0

Screens: PubChem BioAssay, Fisher Drug Discovery Resource Center
